Compound activity: PubChem, Southern Research Institute
Mtb H37Rv: Confirmatory growth inhibition assay against Mycobacterium tuberculosis H37Rv, potency (AID 1949) | most inactive calls were filed without a number and no value below 0 was filed | 100,000 compounds, 1.6% hits | one-dose inhibition, % at 10 µg/mL; IC50 in µg/mL for titrated hits;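 active = confirmed in a dose series; inconclusive = about 50% or more but not retested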;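 note: bacteria grown 7 days with compound before Alamar blue readout; 0% = untreated bacteria and 100% = reference antibiotic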
Starred values were filed as active, the others as inactive; i = inactive; ? = inconclusive.

mol	Mtb H37Rv
Cc1ccc(S(=O)(=O)NC2CC2)cc1[N+](=O)[O-]	i
O=c1[nH]c(SCc2nc3ccccc3c(=O)n2-c2ccc(Cl)c(Cl)c2)nc2ccccc12	i
O=C(c1cc(S(=O)(=O)N2CCCCC2)ccc1Cl)N1CCCCC1	0.8%
COc1ccc(Cl)cc1N(CC(=O)NCCSC1CCCCC1)S(C)(=O)=O	i
CCOc1ccccc1OCC(=O)Oc1cc(C)c(Cl)c(C)c1	i
COc1cccc(C(=O)NCCc2ccccc2)c1	0.3%
O=C1OC(c2ccccc2)=C/C1=C1\c2ccccc2-c2ncccc21	8.3%
CCN(CC)c1ccc(NC(=O)C(C)Oc2cccc(Cl)c2)cc1 (stereo not drawn)	6.4µg/mL*
O=C(c1cc([N+](=O)[O-])ccc1NC1CCCCC1)N1CCOCC1	i
OCc1cc(Cl)c(OCc2ccccc2F)c(Cl)c1	2.2%
COc1ccc(N2CCN(C(=O)C34CC5(C)CC(C)(CC(C)(C5)C3)C4)CC2)cc1	3.4%
COc1ccc(NC(=O)CCC(=O)c2ccc(C(C)C)cc2)cc1	i
Cc1cccc(C)c1OCc1nnc(SCC(=O)Nc2cc(C(F)(F)F)ccc2Cl)o1	i
CCCNC(=O)NC1CC(C)(C)NC(C)(C)C1	i
CCCCC(=O)NC(c1ccc(O)c(OCC)c1)c1cc([N+](=O)[O-])c2cccnc2c1O (stereo not drawn)	i
CCOC(=O)c1c(NC(=O)c2ccccc2N(C)S(C)(=O)=O)sc2c1CCCC2	4.7%
CCC(C)c1ccc(OCC(=O)Nc2ccc(OC)c([N+](=O)[O-])c2)cc1 (stereo not drawn)	1.61µg/mL*
Cc1cc(C(C)(C)C)ccc1OCCCCN1CCOCC1	3.0%
COC(=O)c1cc(OC)c(OC)cc1NC(=O)COc1ccc(Br)cc1Cl	i
COc1cc(NC(=O)c2ccc3c(c2)C(=O)N(Cc2ccccc2)C3=O)c(C(=O)O)cc1OC	i
COc1ccc(OCC(=O)N=Nc2c(O)[nH]c3ccccc23)cc1	i
CC(C(=O)Nc1nc2ccccc2s1)(c1ccccc1)c1ccccc1	5.6%
CCOC(=O)c1ccc(NC(=O)Cc2ccccc2OC)cc1	i
CCc1ccccc1N(CC(=O)Nc1ccc(F)c(F)c1)S(C)(=O)=O	3.8%
CC(=O)Nc1nnc(SCC(=O)N2CCCCC2)s1	i
CCc1ccc(NC(=O)CN(c2cccc(OC)c2)S(=O)(=O)c2ccc(C)cc2)cc1	i
CS(=O)(=O)Nc1ccccc1C(=O)NC1CCCCC1	i
CC(C)(C)NC(=O)c1ccc(NC(=O)COc2ccc3ccccc3c2)cc1	i
COC(=O)c1ccc(CN2CCN(c3ccccc3)CC2)o1	i
O=C(Nc1nnc(SCC(=O)N2CCc3ccccc32)s1)c1ccccc1Br	i
CCOc1ccc(C(C)NC(=O)Nc2ccc(OC)cc2OC)cc1 (stereo not drawn)	i
COc1ccc2cc(Br)ccc2c1CC(=O)NCCCN1CCOCC1	i
O=C1c2ccccc2C(=O)N1Cc1nc2ccccc2c(=O)n1-c1cccc2ccccc12	i
O=C(NCc1ccco1)Nc1ccc(F)cc1F	i
O=C(Cc1ccccc1)Nc1cc(Cl)c(O)c(Cl)c1	i
Cc1cc(Cl)ccc1OC(C)C(=O)Nc1c(C)cccc1C (stereo not drawn)	i
O=C(CC(C(=O)O)C1CCCO1)Nc1ccc(Cl)cc1Cl (stereo not drawn)	i
CC(NC(=O)CC1CCCCC1)c1ccccc1 (stereo not drawn)	i
O=C(CSC1=NCCS1)N1CCN(C(c2ccccc2)c2ccccc2)CC1	0.2%
Cc1ccc(S(=O)(=O)Cc2ccc(C(=O)Nc3cc(Cl)ccc3C)cc2)cc1	i
Cc1ccc(-c2csc3nc(SCC(=O)NCC4CCCO4)n(-c4ccccc4)c(=O)c23)o1 (stereo not drawn)	3.3%
Oc1ccccc1-c1n[nH]c(/C=C/c2ccc(F)cc2)n1	?
CCOC(=O)CSc1nc(N2CCCC2)c2c(c1C#N)CC(C)(C)OC2	i
O=C(Nc1ccc(S(=O)(=O)Nc2ccc(Br)cc2)cc1)c1ccco1	i
Cc1ccc(C(=O)Nc2ccccc2C(=O)NCCc2ccccc2)cc1	i
Cc1ccc(CN(c2ccc(C(=O)NC3CCCCC3)cc2)S(C)(=O)=O)cc1	i
Nc1cc(=O)[nH]c2nnc(SCc3ccccc3Cl)n12	i
CCn1c(SCc2ccc(OC)cc2)nnc1-c1cccs1	9.4%
CCC(Oc1ccccc1)C(=O)Nc1ccccc1C(=O)OC (stereo not drawn)	i
COc1ccc(C(=O)Nc2cc(Cl)ccc2OC)cc1Cl	7.3%
O=C(CSc1ccc(C(F)(F)F)cc1[N+](=O)[O-])OCC1CCCO1 (stereo not drawn)	?
CCOC(=O)c1ccc(NC(=O)CCC(C)C(=O)O)cc1 (stereo not drawn)	i
Cc1ccc(SCCC(=O)Nc2c(C)n(C)n(-c3ccccc3)c2=O)cc1	i
S=c1[nH]nc(-c2cnccn2)n1-c1ccc2c(c1)OCCO2	i
CC(Sc1nc(-c2ccccc2)ccc1C#N)c1ccccc1 (stereo not drawn)	i
Cc1cccc(-c2nc3ccc(I)cc3c(=O)o2)c1	9.6%
COc1ccc(S(=O)(=O)N(C)CC(=O)Nc2ccc(I)cc2)cc1C	i
N#Cc1c(-c2ccccc2)nc(SCC(=O)N2CCCc3ccccc32)[nH]c1=O	i
Cc1cc(C)cc(OCc2ccc(C(=O)O)o2)c1	i
O=C(NC1CCCCCCC1)NC1CCCCC1	i

(list continues)
mol	Mtb H37Rv
O=C1C(=O)N(CC2CCCO2)C(c2ccccc2[N+](=O)[O-])/C1=C(/O)c1ccccc1 (stereo not drawn)	i
Cc1cc(C)nc(SC2CCCCC2NS(=O)(=O)c2ccc(Cl)cc2)n1 (stereo not drawn)	i
COc1ccc(Cc2nn[nH]n2)cc1OC	2.8%
Cc1cc(C)c(OCCCN(C)C)c(Cl)c1	i
COCCCn1c(=N)c(S(=O)(=O)c2ccccc2)cc2c(=O)n3cccc(C)c3nc21	i
Cc1ccc(Nc2nc(CSc3nnnn3-c3ccccc3)cc(=O)[nH]2)cc1	4.7%
O=c1[nH]c(CSc2nnc(CCCOc3ccc(Cl)cc3Cl)o2)nc2ccccc12	i
Cc1ccc2cc(C=O)c(N3CCCCC3)nc2c1	11.6%
CC(=O)c1sc2nc(-c3cccs3)ccc2c1N	24.1%
COc1cccc(C(=O)NNC(N)=O)c1	i
Cn1c(SCC(=O)Nc2nccs2)nnc1-c1ccccc1	i
O=C(CS(=O)(=O)c1ccc2ccccc2c1)c1ccc([N+](=O)[O-])cc1	2.6%
COc1cc(NC(=S)NCCCN2CCOCC2)c(OC)cc1Cl	i
O=S(NCc1ccccc1)C12CC3CC(CC(C3)C1)C2 (stereo not drawn)	1.3%
O=C(Nc1ncccn1)c1cccc(C(F)(F)F)c1	i
Cc1ccccc1NCC(=O)c1ccc(Br)cc1	0.3%
COc1ccccc1NC(=O)CSc1nnc(CNC(=O)c2ccc(C)cc2)n1C	i
CCCC(=O)Nc1ccc(Cl)c(NC(=O)c2ccc(C)c(Cl)c2)c1	i
CC(C)n1c(-c2ccc(Cl)cc2)n[nH]c1=S	i
Cc1sc(NC(=O)CSc2nnc(-c3ccc(Br)cc3)o2)nc1-c1ccccc1	i
S=c1[nH]ncn1NCc1cccc(Br)c1	i
COc1cccc(NC(=O)C(C)N(c2ccc(Oc3ccccc3)cc2)S(C)(=O)=O)c1 (stereo not drawn)	i
O=C(NCCc1ccc(Cl)cc1)c1ccc(Br)s1	i
CC(C)c1nnc(N2C(=O)c3oc4ccccc4c(=O)c3C2c2cccc(Oc3ccccc3)c2)s1 (stereo not drawn)	i
Cc1ccccc1N(CC(=O)N1CCCCCC1)S(=O)(=O)c1ccccc1	1.1%
Fc1cccc(NC(=S)NC2CCCC2)c1	0.2%
Cc1sc2c(c1C)c(=O)nc1scc(CC(=O)O)n12	i
Cc1sc2ncn(CC(=O)NCc3ccccc3)c(=O)c2c1C	i
O=C(CCC1COc2ccccc2O1)Nc1ccc(NC(=O)c2ccccc2F)cc1 (stereo not drawn)	i
O=Cc1c(Sc2ccc(Cl)cc2)nc2ccccn2c1=O	i

Reprinted at random: four records from the list, in no set order.
mol	Mtb H37Rv
CCn1c(SCc2ccc(OC)cc2)nnc1-c1cccs1	9.4%
CCCCC(=O)NC(c1ccc(O)c(OCC)c1)c1cc([N+](=O)[O-])c2cccnc2c1O (stereo not drawn)	i
Cc1cc(C)nc(SC2CCCCC2NS(=O)(=O)c2ccc(Cl)cc2)n1 (stereo not drawn)	i
COc1ccc2cc(Br)ccc2c1CC(=O)NCCCN1CCOCC1	i

Next section.
mol	Mtb H37Rv
O=C(NNC(=S)NCc1ccc(Cl)cc1)c1ccc(Br)o1	i
CC1CC(C)CN(C(=O)CCC(=O)N2CC(C)CC(C)C2)C1 (stereo not drawn)	i
Cc1cc(C)n(C(=O)COc2ccc(C)c(C)c2)n1	i
COc1ccc(Cl)cc1NC(=S)Nc1ccc(NS(=O)(=O)c2ccc(C)cc2)cc1	i
CCCc1[nH]nc2c1C(c1ccc(C)s1)C(C#N)=C(N)O2 (stereo not drawn)	1.9%
Cc1cc(NC(=O)CSc2nnc(COc3ccccc3Cl)n2C)ccc1Br	i
CCCc1cc(C(=O)NNC(=S)NCCc2ccc(OC)c(OC)c2)cs1	i
COc1nc2c(c(=O)n(C)c(=O)n2C)n1Cc1ccccc1C	2.0%
CCc1ccc(OCCOCCNCCCOC)cc1	i
CCOc1ccc(C(F)(F)F)cc1NC(=O)COc1ccc(C(F)(F)F)cc1[N+](=O)[O-]	i
COc1ccc(C(=O)Nc2cccc(Cl)c2)cc1I	6.1%
O=C(NCc1cccnc1)c1ccc(Cl)c(S(=O)(=O)N2CCOCC2)c1	i
CC1CCCCN1S(=O)(=O)c1ccc(C(=O)NCCc2ccccc2)cc1 (stereo not drawn)	i
O=C(Nc1ccc2oc(-c3ccc(Cl)cc3Cl)nc2c1)c1cncc(Br)c1	i
Cc1ccc2c(Cl)c(C(=O)Nc3cc(=O)n(C)c(=O)n3C)sc2c1	i
O=C(CSc1nnc(-c2ccccc2)n1-c1ccccc1)c1cccc([N+](=O)[O-])c1	1.1%
CCCOc1c(Br)cc(C2C3=C(CCCC3=O)NC3=C2C(=O)CCC3)cc1OC	i
O=C(Nc1ncnc2sc3c(c12)CCC3)c1ccccc1	?
CCOc1ccccc1NC(=O)CN(Cc1ccccc1)S(=O)(=O)c1ccc(OC)cc1	9.3%
Cc1cc(C)cc(N(C(C)C(=O)N2CCCCC2)S(C)(=O)=O)c1 (stereo not drawn)	i
O=C(Nc1ccc2c(c1)OCO2)C1CC(c2c(F)cccc2Cl)=NO1 (stereo not drawn)	i
CCCS(=O)(=O)N1CCN(C(=O)c2ccccc2Cl)CC1	i
CCc1cc2c(-c3ccccc3)cc(=O)oc2cc1OCC(=O)N(C)C	i
Cc1ccc(NC(=O)CN(c2ccc(Cl)cc2)S(C)(=O)=O)cc1Cl	1.1%
CCOc1ccccc1C(=O)NC(=S)Nc1ccc(F)c(Cl)c1	i
Cc1ccc(S(=O)(=O)Nc2cc(C)c(C)cc2O)cc1	i
CN(Cc1nc2ccccc2n1C)S(=O)(=O)c1ccc(Cl)cc1	i
CC1CN(C(=S)Nc2ccc(S(=O)(=O)Nc3ncccn3)cc2)CC(C)O1 (stereo not drawn)	i
COc1ccc(Cl)cc1S(=O)(=O)n1c([N+](=O)[O-])cnc1C	i
COc1ccc(NC(=O)C(=O)NCc2cccc(OC)c2)cc1	i
FC(F)(F)c1cccc(NC(=S)Nc2cccc(Cl)c2)c1	13.5µg/mL*
CCCCNS(=O)(=O)c1ccc(NC(=O)c2cc(OC)c(OC)cc2[N+](=O)[O-])cc1	i
Cc1ccc(C(C)C)cc1S(=O)(=O)NCc1ccc2c(c1)OCO2	i
Nn1c(Cn2cnc3ccccc32)n[nH]c1=S	i
C=CCN(CC=C)S(=O)(=O)Cc1ccc(Cl)cc1	i
Cc1cccc(N2C(=O)CC(Nc3ccc(N4CCOCC4)cc3)C2=O)c1C (stereo not drawn)	i
COc1cccc(OCCNC(C)(C)C)c1	i
Cc1ccc(N=C2NC(=O)CC(C(=O)Nc3cc(C)cc(C)c3)S2)cc1 (stereo not drawn)	i
COc1ccc(CCC(=O)N2CCc3ccccc32)cc1	4.2%
Cc1ccc(SCC(=O)O/N=C(\N)c2cccnc2)cc1	i
O=C(CCC1COc2ccccc2O1)NCc1ccco1 (stereo not drawn)	i
Cc1ccc(C(=O)NCC2(C)C3CC4CC(C3)CC2C4)cc1 (stereo not drawn)	45.3%
Cc1cc(C)cc(N(CC(=O)O)S(C)(=O)=O)c1	i
CCOC(=O)CCC(=O)Nc1ccc(S(=O)(=O)NC(C)C)cc1	i

Among those listed so far, these contain a CF3 group.
mol	Mtb H37Rv
Cc1cccc(C)c1OCc1nnc(SCC(=O)Nc2cc(C(F)(F)F)ccc2Cl)o1	i
O=C(CSc1ccc(C(F)(F)F)cc1[N+](=O)[O-])OCC1CCCO1 (stereo not drawn)	?
O=C(Nc1ncccn1)c1cccc(C(F)(F)F)c1	i
CCOc1ccc(C(F)(F)F)cc1NC(=O)COc1ccc(C(F)(F)F)cc1[N+](=O)[O-]	i
FC(F)(F)c1cccc(NC(=S)Nc2cccc(Cl)c2)c1	13.5µg/mL*

An excerpt; the hit share may differ from the screen's.
